Source: PubChem
AmpC inh no det – inhibitors of E. coli AmpC beta-lactamase without detergent. P00811. AmpC nitrocefin hydrolysis, absorbance 480 nm, no detergent; potencies from a single point are estimates. 1.8% of 71,000 active. Potency, µM (highest dose often 28.7 µM), inactives show at the highest dose activity change, negative = inhibition; active = falling curve, for most hits resting on a single point; inconclusive = weak or doubtful change; inactive = flat or rising curve; also: % of control where 0% means no effect; about half of the hits show no inhibition at the top dose; a quarter of the inactives give rising signals
Target sequence (P00811 whole entry, looked up): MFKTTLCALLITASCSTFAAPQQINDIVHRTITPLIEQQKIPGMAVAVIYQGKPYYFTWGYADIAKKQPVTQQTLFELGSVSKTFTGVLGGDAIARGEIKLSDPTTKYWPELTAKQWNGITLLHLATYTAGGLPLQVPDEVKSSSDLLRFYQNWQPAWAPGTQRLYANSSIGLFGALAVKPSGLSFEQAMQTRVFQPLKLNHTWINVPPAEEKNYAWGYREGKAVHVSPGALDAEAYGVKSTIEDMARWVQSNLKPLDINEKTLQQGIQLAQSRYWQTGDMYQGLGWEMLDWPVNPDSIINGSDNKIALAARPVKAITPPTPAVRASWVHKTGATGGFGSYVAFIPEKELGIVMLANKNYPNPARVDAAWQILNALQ
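Enzyme, pH 7.0 phosphate. Compound titrations were pre-incubated with AmpC for 15 min at room temperature before nitrocefin (stock 800 uM) addition; product formation was recorded at 480 nm every 20 s for 4 min.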
Starred values were filed as active, the others as inactive; ? = inconclusive; & = joins results of further samples; [ ] = remark or other dose. Potency is read from the fitted curve at half-maximal effect.

SMILES	AmpC inh no det
Nc1nc2n(n1)C(c1ccco1)CC(c1ccc(F)cc1)N2 (stereo unspecified)	33%
O=S(=O)(/N=S1/CC=CCN1S(=O)(=O)c1ccccc1)c1ccccc1 (stereo unspecified)	-2%
O=C(Nc1cccc(OCC(=O)N2CCOCC2)c1)C1CCCCC1	8%
CCc1ccc(S(=O)(=O)NCc2csc(C)n2)s1	-8%
CC1CCN(S(=O)(=O)c2cccc(C(=O)Nc3nccs3)c2)CC1	-4%
Cn1cccc1C(=O)N1CCC2(CCN(Cc3ccccc3)CC2)CC1	-5%
CCn1c(CCNC(=O)c2ccc(OC)c(OC)c2)nc2ccccc21	21%
CC(C)NC(=O)N1CC[C@@]2(CCCN(C(=O)c3csnn3)C2)C1	1%
COc1nnc(-c2ccc(N3CCOCC3)c(NC(C)=O)c2)c2ccccc12	61%
COc1ccc(S(=O)(=O)N(C)CC(=O)N2CCC(C)CC2)cc1Cl	56%
CC(C)C[C@@H](CC(=O)N[C@@H](CCC(=O)O)CC(=O)O)NC(=O)[C@@H]1CNCC[C@H]1NC(=O)C[C@@H](NC(=O)C[C@H](Cc1c[nH]c2ccccc12)NC(=O)[C@@H]1CCCC[C@H]1N)C(C)C	118%
CC(C)C(=O)Nc1cccc2nsnc12	-3%
CNP1(NC)=Nc2nn(-c3ccccc3)c(N)c2C(c2ccccc2)=N1	-6%
CCOC(=O)N1CCC(N(C(=O)Nc2ccc(Cl)c(Cl)c2)C(C)CC)CC1 (stereo unspecified)	41%
C=CCC(Nc1ccco1)c1ccccc1 (stereo unspecified)	-5%
CCOC(=O)c1c(C)[nH]c(C(=O)Cn2c(=O)c3c(ncn3CC)n(Cc3ccccc3)c2=O)c1C	106%
COc1ccc(C(=O)NCc2nnc(SCC(=O)N3CCc4ccccc43)o2)cc1OC	32%
c1cc2c3c(c1)c1c(n3CCNC2)CCCC1	?
CC(=O)NC(=S)c1c(N)n(Cc2ccccc2)c(=O)n(C)c1=O	4%
Cn1c(=O)[nH]c(=O)c2c1nc(Br)n2CC(O)COCc1ccccc1 (stereo unspecified)	3%
CCC(=O)Oc1ccc(C2N(C(=O)CC)CCN2S(=O)(=O)c2ccc(C)cc2)cc1OC (stereo unspecified)	112%
CCC(=O)c1cc(F)c(N2CCN(C(=O)c3ccco3)CC2)cc1C	61%
CCOC(=O)c1ccoc1CSCC(=O)N1CCN(S(=O)(=O)c2ccc(C)cc2)CC1	89%
Cc1cc(C)n(-c2nc3c(c(=O)n(C)c(=O)n3C)n2C)n1	-5%
CN(C)C[C@H]1CCC2=C(C1=O)C(c1ccc(Cl)c(Cl)c1)C1=C(CC[C@H](CN(C)C)C1=O)O2	11%[5.75 µM]
Cc1oc(-c2ccccc2F)nc1CS(=O)(=O)CC(=O)N1CCc2ccccc21	11%
CC1CCN(C(=O)CSc2ccc3nnc(-c4ccccc4)n3n2)CC1	44%
COc1ccccc1NC(=O)CSc1nnc(-c2ccc(C)cc2)o1	-9%
O=C(CCn1c(=O)[nH]c2ccsc2c1=O)N1CC(=O)N(CCc2ccccc2)C(=O)C1	17%
O=P(O)(c1ccc(Cl)cc1)c1ccc(Cl)cc1	-17%
Cc1c(-c2nn(C)c(=O)c3ccccc23)oc2ccc(F)cc2c1=O	34%
Oc1c(I)cc(Cl)c2cccnc12	?
Cc1cc(C)cc(N2C(=O)C3CC=CCC3C2=O)c1 (stereo unspecified)	14%
CCN1CCN(Cc2nc3c(c(=O)n(C)c(=O)n3C)n2Cc2ccc(Cl)cc2Cl)CC1	-21%
CC(=O)Oc1ccc(-c2nc(-c3cccnc3)no2)cc1	4%
COCCN1C(=O)c2oc3ccccc3c(=O)c2C1c1ccc(C(=O)OC)cc1 (stereo unspecified)	-6%
COc1ccc(OC)c(C2SCCN2S(=O)(=O)c2cccc(C(F)(F)F)c2)c1 (stereo unspecified)	9%
Cc1ccc(Cn2c(NCCCn3ccnc3)nc3c2c(=O)n(C)c(=O)n3C)cc1	34%
O=C(Nc1ccc2c(c1)oc1ccccc12)c1ccc(Br)o1	?
N#Cc1c(NC(=O)CSc2nnc(-c3ccccc3O)n2-c2ccccc2)sc2c1CCCC2	?
c1ccc2c(c1)CC1(CCCC1)n1nnnc1-2	-7%
COc1ccccc1-c1noc(-c2ccncc2)n1	12%
O=C(c1ccco1)N1CCN(c2ccc(S(=O)(=O)N3CCCC3)cc2)CC1	26%
Cc1cc(C)n(CC(O)CN2c3ccccc3Sc3ccccc32)n1 (stereo unspecified)	110%
Cc1ccc(S(=O)(=O)NCC(=O)OCC(=O)Nc2ncc(Cl)cc2Cl)cc1	-6%

Laid out differently: entries from further up.
mol,AmpC inh no det
Cc1ccc(Cn2c(NCCCn3ccnc3)nc3c2c(=O)n(C)c(=O)n3C)cc1,34%
CC(=O)Oc1ccc(-c2nc(-c3cccnc3)no2)cc1,4%
CCN1CCN(Cc2nc3c(c(=O)n(C)c(=O)n3C)n2Cc2ccc(Cl)cc2Cl)CC1,-21%
O=C(c1ccco1)N1CCN(c2ccc(S(=O)(=O)N3CCCC3)cc2)CC1,26%
COc1ccccc1-c1noc(-c2ccncc2)n1,12%
Cc1cc(C)n(CC(O)CN2c3ccccc3Sc3ccccc32)n1 (stereo unspecified),110%
Cc1cc(C)cc(N2C(=O)C3CC=CCC3C2=O)c1 (stereo unspecified),14%

Next part:
SMILES	AmpC inh no det
O=C(c1ccccc1)N1CCN(C(=O)N2CCCCC2)CC1	6%
CCOC(=O)c1sc(NC(=O)CSc2nnnn2-c2ccccc2)c(C(=O)OCC)c1C	?
CN(CCNS(=O)(=O)c1ccc2c(c1)oc(=O)n2C)Cc1ccccc1	-11%
CCOC(=O)c1cc2sccc2n1CC(=O)Nc1ccc(OC)c(OC)c1	45%
Cn1nnnc1SCC(=O)Nc1ccccc1C(=O)NCc1ccccc1	-10%
COc1ccc(NC(=O)N2CC3(CCN(C(=O)Oc4ccccc4)CC3)C2)cc1	58%
CCOc1ccc2cc(C#N)c(SCC(=O)N3CCOCC3)nc2c1	63%
CCCn1c(SCC(=O)NCc2ccco2)nc2c1c(=O)n(C)c(=O)n2C	6%
c1nc(NC2CCCC2)c2[nH]cnc2n1	8%
O=C(Nc1ncc2c(n1)CC(c1ccccc1)CC2=O)c1ccco1 (stereo unspecified)	2%
Brc1ccccc1-c1ccccc1	-11%
CCCCCn1c(=O)[nH]c2cc(C(=O)NCc3ccc4c(c3)OCO4)ccc2c1=O	-18%
COC(C)(C)C	-6%
CCc1ccccc1-n1cnc2cc(C(=O)O)ccc21	-10%
C=C1c2cc(CC)ccc2NC(=O)N1c1ccc(C)cc1	4µM*[single pt active]
COc1ccc2cnn(-c3ccccc3)c(=O)c2c1OC	2%
Cc1ccc2oc(=O)c3cnn(CC(=O)NCCc4ccsc4)c3c2c1	16%
Cc1cc(N=CC2=C(O)CCCC2=O)no1	6%
COc1ccc2c(c1)c1nnc(SC)nc1n2C	-9%
CCOC(=O)N1CCC(N2C(=O)c3ccccc3C2Nc2cccnc2)CC1 (stereo unspecified)	9%
CCOC(=O)N1CCN(CC(=O)Nc2c(C(=O)OC)[nH]c3cccc(Cl)c23)CC1	7%
CN=c1oc2ccc(Cl)cc2cc1C(N)=O	-1%
COc1ccccc1Nc1nnc(SCC(=O)N2CCCC2)s1	7%
COC(=O)c1[nH]c2cc(C)ccc2c1NC(=O)CN1CCCc2ccccc21	39%
CN(C(=O)c1ccco1)c1nnc(C23CC4CC(CC(C4)C2)C3)s1	83%
O=C(c1c(Cl)cccc1Cl)N1CCCCCC1	18%
CC1(C)CC(=O)C=C(NC2CCCCCC2)C1	10%
Cc1cccc(OCCCCCn2ccnc2)c1C	50%
CCOC(=O)CC(=O)CSc1ccc2nnc(-c3ccc(F)cc3)n2n1	11%
COc1cccc(NC(=O)CSc2nnc(-c3ccc(C)cc3)o2)c1	-9%

Reprinted at random: 2 compounds from above
SMILES	AmpC inh no det
CCOC(=O)CC(=O)CSc1ccc2nnc(-c3ccc(F)cc3)n2n1	11%
CCOC(=O)N1CCC(N2C(=O)c3ccccc3C2Nc2cccnc2)CC1 (stereo unspecified)	9%

The list goes on:
SMILES	AmpC inh no det
CCNc1ncc2nc(-c3ccc(F)cc3)c(=O)n(CCc3ccccc3)c2n1	-14%
Cn1c(=O)c2c(nc(N3CCN(Cc4ccccc4)CC3)n2CCCc2ccccc2)n(C)c1=O	128%
CCC1CCCCN1C(=O)CSc1nnc(-c2cccc(Cl)c2)o1 (stereo unspecified)	72%
COc1ccccc1N1CCN(C(=O)CCn2c(=O)[nH]c3ccsc3c2=O)CC1	34%
Cc1ccc(CN2C(=O)CCC2C(=O)NCC2CCCO2)cc1 (stereo unspecified)	5%
O=C(c1cccn2c(=O)c3cc(Cl)ccc3nc12)N1CCN(Cc2ccc3c(c2)OCO3)CC1	162%
COc1cccc(CNc2cccc3cccnc23)c1O	0%
Cc1cc(C)n(-c2nnc(C)n2NS(C)(=O)=O)n1	-6%
Cn1c(SCc2ccc(C#N)cc2)nnc1-c1ccccc1	21%
O=C(c1cccc(F)c1)N1CCC[C@@]2(CCN(Cc3nccs3)C2)C1	24%
CC(=O)Nc1ccc(S(=O)(=O)NCc2csc(C)n2)cc1	6%
C/C(N)=C(/C#N)C(=O)CSc1nnc(Cc2ccccc2F)n1N	-13%
CCOC(OCC)P(=O)(C(C)C)C(C)C	5%
CC(C)(C)C(=O)Cn1c(NCCCO)nc2ccccc21	5%
COC(=O)CCn1nnc(-c2ccc(C)cc2)n1	2%
Cc1nc2cncnc2n(Cc2ccccc2)c1=O	17%
Cc1nc2c3cnn(-c4ccccc4)c3ncn2n1	-4%
CC1CCN(S(=O)(=O)c2ccc3c(c2)c(=O)c(C(=O)N2CCCCC2)cn3C)CC1	36%
CS(=O)(=O)Nc1ccc(Cc2ccc(NS(C)(=O)=O)cc2)cc1	-4%
O=C(COc1ncnc2ccccc12)N1CCN(S(=O)(=O)c2ccc(Cl)cc2)CC1	104%
O=C(CCn1c(=O)oc2ccccc21)N1CCOCC1	-8%
CCCC(=O)Nc1ccc(NC(=O)c2ccccc2OC)cn1	-6%
O=C(CN1C(=O)C2C3C=CC(C3)C2C1=O)NCCN1CCCc2ccccc21 (stereo unspecified)	31%
CCCCCCCCC/C=C/CC1CC(=O)OC1=O (stereo unspecified)	5%
Cc1nnc(NC(=O)CSc2nnc(Cc3ccccc3)n2Cc2ccccc2)s1	48%
O=C1c2ccccc2CC1Sc1nnc(-c2ccncc2)o1 (stereo unspecified)	-3%
Cc1cc(C(=O)N2CCN(c3cccc(Cl)c3)CC2)c(C)o1	64%
COCCOC(=O)C1=C(C)NC(=O)CC1c1cc2c(cc1Br)OCO2 (stereo unspecified)	15%
Clc1ccc(-c2nc3nc4ccccc4nc3n2Cc2ccco2)cc1	12%
O=c1c(-c2ccc(F)cc2)nc2cnc(N3CCNCC3)nc2n1-c1ccccc1	94%
CC1=Nn2c(nnc2-c2cc(C)[nH]n2)SC1	-5%
CN(C)S(=O)(=O)c1ccc(C(=O)Nc2nc(-c3cccs3)cs2)cc1	-6%
Cc1cc(C)c(C#N)c(SCS(=O)Cc2ccccc2)n1 (stereo unspecified)	14%
COc1ccc(OC)c(C2CC(=O)c3c([nH]c(C(=O)OC(C)C)c3C)C2)c1 (stereo unspecified)	2.5µM*[single pt active]
O=C(NCCc1csc(-c2cccnc2)n1)c1ccco1	4%
CCSc1oc(-c2ccccc2)nc1S(=O)(=O)c1ccccc1	-9%
COc1cnc(NS(=O)(=O)c2ccc(N)cc2)nc1	-12%[12.8 µM]
CC(C)(CS)C(=O)N1CCC[C@H]1C(=O)O	-5%[12.8 µM]
CCOC(=O)c1nc2nc(C)cc(=O)n2[nH]1	5%
CC(C)(C)OO	-14%&-6%
CCn1c(C2CC(=O)N(c3cc(C)cc(C)c3)C2)nc2ccccc21 (stereo unspecified)	65%
CCn1cc(C2=NCC(C)O2)c2ccccc21 (stereo unspecified)	2%
Cc1ccc(C(N)=Nc2ccccc2)cc1	5%[5.75 µM]
CCOc1cc2[nH]c(=O)n(Cc3cccc(OC)c3)c(=O)c2cc1OCC	48%
CCCOC(=O)C1=C(C)NC2=C(C(=O)C(C(=O)OC)C(C)C2)C1c1ccc(N(CC)CC)cc1 (stereo unspecified)	102%

6 entries from above, set out differently.
canonical_smiles | AmpC inh no det
CC(C)(C)C(=O)Cn1c(NCCCO)nc2ccccc21 | 5%
COC(=O)CCn1nnc(-c2ccc(C)cc2)n1 | 2%
Cc1nc2cncnc2n(Cc2ccccc2)c1=O | 17%
Cc1nc2c3cnn(-c4ccccc4)c3ncn2n1 | -4%
CC1CCN(S(=O)(=O)c2ccc3c(c2)c(=O)c(C(=O)N2CCCCC2)cn3C)CC1 | 36%
CS(=O)(=O)Nc1ccc(Cc2ccc(NS(C)(=O)=O)cc2)cc1 | -4%

More results
SMILES	AmpC inh no det
Cc1noc(C)c1-c1nc(Nc2ccc(F)cc2)c2ccccc2n1	?
N[C@@H](Cn1cc(I)c(=O)n(Cc2ccc(C(=O)O)cc2)c1=O)C(=O)O	4%
CCCn1c(SCC(=O)Nc2sc(C)c(C)c2C(=O)OCC)nc2c1c(=O)n(C)c(=O)n2C	52%
N#CC1=C(N)Oc2cc(O)ccc2C1c1cccs1 (stereo unspecified)	-24%
C=Cc1cccc(C)c1	-9%
O=C(COC(=O)c1cccs1)Nc1ccccc1	-7%
COc1cccc(Cn2c(=O)c(-c3cc(F)cc(F)c3)nc3cnc(OC)nc32)c1	8%
COc1ccc(-c2c(C)oc3c(CN4CCN(CCO)CC4)c(O)ccc3c2=O)cc1OC	1%
Cc1ccc(P(=O)(O)c2ccc(C)cc2)cc1	-1%
CCCCCc1c(C)nc(Nc2nc(C)c3cc(OC)ccc3n2)[nH]c1=O	102%
CC1=CCC2C(=O)N(c3ccc(Br)cc3C)C(=O)C2C1 (stereo unspecified)	8%
CCOC(=O)CN1C(=O)C(C)(C)Oc2ccc(C(=O)Nc3ccccc3)cc21	7%
COc1cc(OC)c(-c2nn3c(C4CCCCC4)nnc3s2)cc1OC	140%

These rows are one share of the data; count on the stated rates, not on these rows.
